Source: PubChem BioAssay
AF4-AF9 inh: blocks AF4 peptide binding to human AF9; P42568; AlphaScreen, biotin-AF4 peptide binding to FLAG-AF9; inhibition, % at 10 µM; actives 0.47% (n = 350,000); AID 651704;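 active = every replicate reaching a set inhibition limit, whatever the replicate mean, cut at about 25% in these data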;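 note: 0% = plate neutral control median and 100% = total signal loss; the record names both 10 and 1 µM as test concentration; the first replicate is given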
Target sequence (P42568 whole entry, looked up): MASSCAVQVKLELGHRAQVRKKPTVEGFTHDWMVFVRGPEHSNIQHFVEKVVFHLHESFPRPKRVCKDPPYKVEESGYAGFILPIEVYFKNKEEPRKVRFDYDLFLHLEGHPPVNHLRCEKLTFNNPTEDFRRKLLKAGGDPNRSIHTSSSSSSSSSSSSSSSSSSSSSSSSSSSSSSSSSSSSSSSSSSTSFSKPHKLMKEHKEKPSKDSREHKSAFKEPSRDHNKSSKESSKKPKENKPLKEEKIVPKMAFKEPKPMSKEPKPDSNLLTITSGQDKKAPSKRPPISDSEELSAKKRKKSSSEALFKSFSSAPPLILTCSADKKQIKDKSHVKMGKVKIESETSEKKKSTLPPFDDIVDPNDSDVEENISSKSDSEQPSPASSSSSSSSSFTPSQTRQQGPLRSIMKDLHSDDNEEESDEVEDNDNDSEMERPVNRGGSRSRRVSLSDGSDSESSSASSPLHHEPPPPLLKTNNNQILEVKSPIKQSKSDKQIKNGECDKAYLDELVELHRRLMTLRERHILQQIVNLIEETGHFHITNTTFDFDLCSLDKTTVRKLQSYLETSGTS
* = called active by the depositor; & = joins results of further samples.

AF4-AF9 inh	structure
-0.2	O=C(NCc1cccnc1)C1Cc2c(-c3ccc(Cl)cc3)ccnc2O1 (stereo not given)
1.0	O=C(C[C@H]1CC[C@H](NC(=O)c2ccc3c(c2)OCO3)[C@@H](CO)O1)NC1Cc2ccccc2C1
-2.9	C[C@@H]1CN([C@@H](C)CO)C(=O)c2cc(-c3ccccc3F)cnc2O[C@H]1CN(C)C(=O)c1cnccn1
-0.6	CC(C)CC#Cc1cnc2c(c1)C(=O)N([C@@H](C)CO)C[C@@H](C)[C@H](CN(C)C(=O)CC1CC1)O2
-4.0	C[C@@H]1CN([C@H](C)CO)C(=O)c2cc(NC(=O)C3CCCCC3)ccc2O[C@@H](C)CCCCO[C@H]1CN(C)Cc1ccc2c(c1)OCO2
-1.8	COc1ccc(NC(=O)Nc2cccc3c2O[C@@H](CN(C)Cc2ccc(C(=O)O)cc2)[C@H](C)CN([C@@H](C)CO)C3=O)cc1
0.9	Cc1ccc(S(=O)(=O)N(C)C[C@H]2Oc3ccc(NC(=O)CCN4CCOCC4)cc3CC(=O)N([C@@H](C)CO)C[C@H]2C)cc1
2.2	NCC[C@H]1CC[C@H](NS(=O)(=O)Cc2ccccc2)[C@@H](CO)O1
-8.1	CCC(=O)Nc1ccc2c(c1)C(=O)N(C)C[C@H](OC)[C@H](C)CN(Cc1ccccc1OC)[C@@H](C)CO2
2.2	CS(=O)(=O)N1[C@@H](C#N)[C@@H](c2ccc(C#CC3CCCCC3)cc2)[C@@H]1CO
-1.0	CC(C)(O)C#Cc1ccc([C@H]2[C@H]3CN(C(=O)c4ccncc4)CCCCN3[C@H]2CO)cc1
2.6	CCC(=O)N1CCCCN2[C@H](CO)[C@H](c3ccc(-c4ccc(F)cc4)cc3)[C@H]2C1

(further entries)
AF4-AF9 inh	structure
-4.2	Cc1cccc(S(=O)(=O)N2CCCCN3[C@H](CO)[C@H](c4ccc(-c5ccccc5)cc4)[C@@H]3C2)c1
-5.3	CN(C)C(=O)c1ccc(-c2ccc([C@@H]3[C@@H](CO)N4CCCCN(S(C)(=O)=O)C[C@@H]34)cc2)cc1
0.0	CC(C)[C@@H]1Cc2[nH]n(C)c(=O)c2[C@H](c2ccc(Cl)cc2)O1
-1.3	Cc1ccc(S(=O)(=O)N(C)C[C@@H]2Oc3cc(C#Cc4ccncc4)ccc3S(=O)(=O)N([C@H](C)CO)C[C@H]2C)cc1
12	COc1cccc(-c2ncn(CCc3ccccc3OC)c2CC(C)C)c1
-3.8	CO[C@H]1CN(C)C(=O)c2ccc(NS(=O)(=O)c3ccccc3C)cc2OC[C@H](C)NC[C@H]1C
-2.8&-2.8	CN(C)C(=O)c1ccc(-c2ccc(C3[C@@H]4CN(C(=O)CN5CCOCC5)C[C@H]3N4)cc2)cc1 (stereo not given in full)
0.5	N#C[C@H]1[C@@H](c2ccc(C#CC3CC3)cc2)[C@H](CO)N1S(=O)(=O)c1ccccc1
1.1	C[C@@H]1CCCCO[C@H](CN(C)C(=O)Cc2ccccc2)[C@H](C)CN([C@@H](C)CO)C(=O)c2cc(NC(=O)CCCN(C)C)ccc2O1
-1.1	C[C@H](CO)N1C[C@H](C)[C@H](CN(C)C(=O)c2ccccc2F)Oc2ncc(-c3ccc(F)cc3)cc2C1=O
1.7	Cc1cn(CC(=O)NCCCN2CCCC2=O)c(=O)[nH]c1=O
-1.4	Cc1ccc(S(=O)(=O)Nc2cccc3c2O[C@@H](CN(C)Cc2ccncc2)[C@@H](C)CN([C@@H](C)CO)C3=O)cc1

Next structures:
AF4-AF9 inh	structure
-1.7	C[C@H](CO)N1C[C@H](C)[C@H](CN(C)S(=O)(=O)c2cccs2)OCCCC[C@H](C)Oc2ccc(NC(=O)C3CCCCC3)cc2C1=O
-1.4	O=C(Nc1nnc([C@@H]2C[C@H](O)[C@@H](CO)O2)s1)c1cccc(Oc2ccccc2)c1
-4.4	C[C@H]1CN([C@@H](C)CO)C(=O)c2cc(NS(=O)(=O)c3ccc(F)cc3)ccc2O[C@@H]1CN(C)C(=O)Nc1cccc2ccccc12
14	CCCNC(=O)N1CC2(CCN(S(=O)(=O)c3ccccc3)CC2)c2c(n(C)c3cc(OC)ccc23)[C@H]1CO
2.7	C[C@H]1CN([C@@H](C)CO)C(=O)c2ccccc2-c2ccccc2CO[C@@H]1CN(C)C(=O)Nc1cccc(C(F)(F)F)c1
1.6	COc1ccc(NC(=O)Nc2ccc3c(c2)[C@@H]2C[C@@H](CC(=O)N4CCCCC4)O[C@H](CO)[C@@H]2O3)cc1
-1.1	CO[C@H]1CN(C)C(=O)c2ccc(NC(C)=O)cc2OC[C@H](C)N(C(=O)Cc2ccccn2)C[C@@H]1C
0.7	COc1ccc(C(C)(O)c2nc(-c3cccc(NC(C)=O)c3)cs2)cc1 (stereo not given)
-3.5	C/C=C/c1ccc2c(c1)O[C@@H](CN(C)C(=O)c1cccnc1)[C@@H](C)CN([C@H](C)CO)S2(=O)=O
1.4	Cc1noc(C)c1S(=O)(=O)Nc1ccc2c(c1)C(=O)N([C@@H](C)CO)C[C@H](C)[C@H](CN(C)C(=O)c1ccncc1)OCCCC[C@@H](C)O2
0.6	Cc1cccc(C)c1NC(=O)C1(C)CSCC(=O)N1CCc1ccccc1 (stereo not given)
-1.9	CO[C@@H]1CN(C)C(=O)c2cc(NS(C)(=O)=O)ccc2OC[C@H](C)N(C(=O)CN(C)C)C[C@H]1C

(further entries)
AF4-AF9 inh	structure
-1.9	C[C@@H]1CN([C@@H](C)CO)C(=O)c2c(c3ccccc3n2C)-c2ccccc2CO[C@@H]1CN(C)C(=O)c1ccccc1
4.8	CN(C)CCN(Cc1ccccc1)C(c1cc2ccccc2o1)c1nnnn1C(C)(C)C (stereo not given)
0.9	COc1cccc(C(O)c2nc(-c3ccc4ccccc4c3)cs2)c1 (stereo not given)
-1.6	C[C@H]1CN([C@@H](C)CO)C(=O)Cc2cc(NS(=O)(=O)c3cn(C)cn3)ccc2O[C@H]1CN(C)S(=O)(=O)c1ccccc1
-3.7	O=C(C[C@@H]1CC[C@H]2[C@@H](COC[C@@H](O)CN2C(=O)c2cccnc2)O1)NCc1ccc(-c2ccccc2)cc1
-3.3	Cc1noc(C)c1NC(=O)N(C)C[C@H]1Oc2ccc(NC(=O)Cc3cn(C)c4ccccc34)cc2CC(=O)N([C@@H](C)CO)C[C@@H]1C
-0.1	COCC(=O)Nc1ccc2c(c1)OC[C@@H](C)N(C(=O)c1ccncc1)C[C@H](C)[C@@H](OC)CN(C)C2=O
-0.6	COc1ccc(C(=O)N2CCCC(c3cc(C(=O)NCc4ccccc4)no3)C2)cc1 (stereo not given)
-0.2	CCC(=O)N(C)C[C@@H]1Oc2ncc(C#CCC(C)C)cc2C(=O)N([C@H](C)CO)C[C@H]1C
-0.4	COc1ccc(C(O)c2nc(-c3ccc(F)cc3OC)cs2)cc1 (stereo not given)
-4.7	Cc1noc(C)c1NC(=O)N(C)C[C@H]1Oc2ccc(NC(=O)NC3CCCCC3)cc2C(=O)N([C@@H](C)CO)C[C@@H]1C
-2.2	COc1ccccc1-c1cnc2c(c1)C(=O)N([C@@H](C)CO)C[C@@H](C)[C@H](CN(C)CC1CCOCC1)O2

Continued:
AF4-AF9 inh	structure
6.9	C[C@H]1CN([C@@H](C)CO)C(=O)c2cccc(NC(=O)c3cnccn3)c2O[C@H]1CN(C)Cc1ccc(Oc2ccccc2)cc1
-0.4	C[C@H]1CN([C@@H](C)CO)C(=O)c2cc(-c3ccc(F)cc3)cnc2O[C@H]1CN(C)C(=O)CN(C)C
-0.1	C[C@H]1CN([C@@H](C)CO)S(=O)(=O)c2ccc(C3=CCCC3)cc2O[C@@H]1CN(C)C(=O)Cc1ccncc1
3.9	COc1ccccc1-c1cnc2c(c1)C(=O)N([C@H](C)CO)C[C@H](C)[C@H](CN(C)Cc1ccc(F)cc1)O2
-2.0	C[C@@H]1CN([C@H](C)CO)C(=O)Cc2cc(NC(=O)CCC(F)(F)F)ccc2O[C@H]1CN(C)Cc1ccc(C(F)(F)F)cc1
0.2	COCC(=O)N1[C@H](CO)[C@@H](c2ccccc2-c2cccc(OC)c2)[C@@H]1C#N
-6.7	Cc1cc(C(=O)Nc2cccc3c2O[C@@H](CN(C)C)[C@@H](C)CN([C@@H](C)CO)C3=O)n(C)n1
-2.1	COc1ccc(NC(=O)N2C[C@@H](O)COC[C@@H]3O[C@@H](CC(=O)N4CCN(C)CC4)CC[C@H]32)cc1
-1.3	CC1CCCN(S(=O)(=O)c2cc(C(=O)NCCc3ccc(S(N)(=O)=O)cc3)ccc2Cl)C1 (stereo not given)
1.8	COc1cccc(S(=O)(=O)N(C)C[C@H]2Oc3cc(C4=CCCCC4)ccc3S(=O)(=O)N([C@H](C)CO)C[C@@H]2C)c1
-0.3	Cc1cc(C(=O)Nc2cccc3c2O[C@@H](CN(C)Cc2ccncc2)[C@@H](C)CN([C@H](C)CO)C3=O)n(C)n1
1.3	CCC(=O)N1[C@H](C(=O)NCc2ccc(F)cc2)[C@@H](CO)[C@@H]2Cn3c(ccc(C4=CCCC4)c3=O)[C@@H]21

A portion from further up, for reference:
AF4-AF9 inh	structure
-1.4	Cc1ccc(S(=O)(=O)Nc2cccc3c2O[C@@H](CN(C)Cc2ccncc2)[C@@H](C)CN([C@@H](C)CO)C3=O)cc1
-1.7	C[C@H](CO)N1C[C@H](C)[C@H](CN(C)S(=O)(=O)c2cccs2)OCCCC[C@H](C)Oc2ccc(NC(=O)C3CCCCC3)cc2C1=O
-1.4	O=C(Nc1nnc([C@@H]2C[C@H](O)[C@@H](CO)O2)s1)c1cccc(Oc2ccccc2)c1
-4.4	C[C@H]1CN([C@@H](C)CO)C(=O)c2cc(NS(=O)(=O)c3ccc(F)cc3)ccc2O[C@@H]1CN(C)C(=O)Nc1cccc2ccccc12
14	CCCNC(=O)N1CC2(CCN(S(=O)(=O)c3ccccc3)CC2)c2c(n(C)c3cc(OC)ccc23)[C@H]1CO
2.7	C[C@H]1CN([C@@H](C)CO)C(=O)c2ccccc2-c2ccccc2CO[C@@H]1CN(C)C(=O)Nc1cccc(C(F)(F)F)c1
1.6	COc1ccc(NC(=O)Nc2ccc3c(c2)[C@@H]2C[C@@H](CC(=O)N4CCCCC4)O[C@H](CO)[C@@H]2O3)cc1
-1.1	CO[C@H]1CN(C)C(=O)c2ccc(NC(C)=O)cc2OC[C@H](C)N(C(=O)Cc2ccccn2)C[C@@H]1C
0.7	COc1ccc(C(C)(O)c2nc(-c3cccc(NC(C)=O)c3)cs2)cc1 (stereo not given)
-3.5	C/C=C/c1ccc2c(c1)O[C@@H](CN(C)C(=O)c1cccnc1)[C@@H](C)CN([C@H](C)CO)S2(=O)=O

Going on with the list:
AF4-AF9 inh	structure
-13	COC(=O)C[C@H]1CC[C@H]2[C@H](COc3ccc(NC(=O)Nc4ccc(C#N)cc4)cc3C(=O)N2C)O1
-0.5	COc1ccc(-c2csc(C(O)(c3ccccc3)C(F)(F)F)n2)cn1 (stereo not given)
-1.9	CO[C@H]1CN(C)C(=O)c2cc(NC(=O)c3ccccc3)ccc2OC[C@@H](C)N(C)C[C@H]1C
-6.2	COc1ccccc1-c1ccc([C@@H]2[C@@H]3CN(S(=O)(=O)c4ccc(-c5ccccc5)cc4)C[C@H]2N3)cc1
-5.4	CC(=O)N1CCCCN2[C@H](CO)[C@H](c3ccc(-c4ccc(C)cc4)cc3)[C@@H]2C1
10	CC=Cc1ccc2n(c1=O)C[C@H]1[C@H](CO)[C@@H](C(=O)Nc3ccccc3)N(CC3CCCC3)[C@@H]21 (mixture of isomers)
2.7	CC(C)C#Cc1ccc2c(c1)O[C@@H](CN(C)C(=O)CC1CC1)[C@@H](C)CN([C@H](C)CO)S2(=O)=O
1.5	CC(C)C#Cc1cnc2c(c1)C(=O)N([C@@H](C)CO)C[C@@H](C)[C@@H](CN(C)Cc1ccccc1)O2
0.6	CN(C)c1ccc(C=NNc2ccccn2)c(Cl)c1
-1.1	Cn1cnc(S(=O)(=O)N2C[C@@H](O)COC[C@H]3O[C@@H](CC(=O)N4CCN(c5ccccc5)CC4)CC[C@@H]32)c1
-0.9	C[C@@]12C(=O)N(CC3CCCO3)CC(=O)N1[C@@H]1c3ccccc3OC[C@@H]1[C@@H]2c1ccccc1 (stereo not given in full)
-0.4	C[C@@H]1CN([C@@H](C)CO)C(=O)Cc2cc(NC(=O)Nc3ccc(C(F)(F)F)cc3)ccc2O[C@@H]1CN(C)Cc1ccc(Cl)c(Cl)c1

The list continues.
AF4-AF9 inh	structure
-0.7	O=C(NCC[C@@H]1CC[C@@H](NS(=O)(=O)c2cccc(Cl)c2)[C@@H](CO)O1)c1cnccn1
0.1	O=C(C(=O)N1CCC(Cc2ccccc2)CC1)c1cccc(Br)c1
4.3	C/C=C/c1ccc([C@@H]2[C@H]3CN(CCC(F)(F)F)CCCCN3[C@H]2CO)cc1
-1.4	CC(=O)N1[C@H](CO)[C@@H]2c3ccccc3N(S(=O)(=O)c3cccc(C)c3)C[C@@H]21
-4.4	Cc1ccc(S(=O)(=O)NN=C(c2ccccc2)c2cccs2)cc1
0.8	CCS(=O)(=O)Nc1ccc2c(c1)C(=O)N(C)[C@H]1CC[C@@H](CC(=O)NCCCN3CCOCC3)O[C@H]1CO2
-2.1	Cc1noc(C)c1NC(=O)N(C)C[C@@H]1Oc2c(NC(=O)Nc3ccc4c(c3)OCO4)cccc2C(=O)N([C@H](C)CO)C[C@@H]1C
-4.9	C[C@H]1CN([C@@H](C)CO)C(=O)Cc2cc(NC(=O)CCCN(C)C)ccc2O[C@@H]1CN(C)S(=O)(=O)c1ccccc1
-1.7	O=S(=O)(c1cccs1)N1CCCCN2[C@H](CO)[C@H](c3ccc(C4=CCCC4)cc3)[C@@H]2C1
1.7	CN(C)C(=O)c1cccc(-c2ccc3n(c2=O)C[C@H]2[C@H](CO)[C@@H](C(=O)NCC(F)(F)F)[C@@H]3N2C)c1
-1.6	C[C@H](CO)N1C[C@H](C)[C@@H](CN(C)C(=O)Nc2cccc3ccccc23)OCCCC[C@H](C)Oc2ccc(NC(=O)Nc3ccc(C(F)(F)F)cc3)cc2C1=O
3.4	CCCCN(C=O)c1c(CC)nc2ccc(C(=O)NCCOc3ccc(OC)cc3)cn12
-2.0	CCCNC(=O)C[C@H]1CC[C@H]2[C@H](COc3ccc(NS(=O)(=O)CC)cc3C(=O)N2C)O1

Not all compounds are listed; rates above refer to the full screens.
